# High-throughput results: PubChem, Fisher Drug Discovery Resource Center
# NPYLR7 ag – mosquito NPYLR7 agonism; HEK293T NPYLR7/Galpha15, GCaMP6s calcium fluorescence; activation, % at 10 µM; 270,000 compounds, 0.15% hits; in the data active means activation above about 40%;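 further: 0% = vehicle and 100% = reference agonist at the receptor; some compounds past the cut are filed as inactive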
# NPYLR7 ag max-min – further read-out of NPYLR7 ag, marked with its call; activation, %; measured here: Max-Min RFU normalised activation; some inactives read as strong as hits;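 span of the calcium signal over five minutes; 0% = vehicle and 100% = native peptide agonist; compound fluorescence can raise it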
# * marks the source's active call; other numbers are inactive results; & = joins results of further samples.
Structure	NPYLR7 ag	NPYLR7 ag max-min
Cc1cc(C)c(NC(=O)C(C)N2CCCC(C(F)(F)F)C2)c(C)c1 (stereo not given)	8	8
C=CCc1cccc2cc(C(=O)Nc3ccccc3CC)c(=O)oc12	-4&0	-4&9
CC(=O)N1CCC(C(=O)N2CCN(CC(OCc3cccc(C)c3)c3ccc(Cl)cc3)CC2)CC1 (stereo not given)	-4	7
Cc1ccc(S(=O)(=O)Nc2ccc(Nc3cnc(-c4ccc(O)cc4)cn3)cc2)cc1	2	0
c1n[nH]nc1SCCNC1CCCNC1 (stereo not given)	4	3
CC(=O)Nc1ccc(NC(=O)Cn2nc(C3CC3)c3cnn(-c4ccccc4)c3c2=O)cc1	4	0
Cc1cc(F)ccc1N1CCC(N2CCN(CCC(C)C)C(CCO)C2)CC1 (stereo not given)	16	4
CC(C)(C)C(=O)N1CC(=O)N(C2Cc3ccccc3C2)CC(O)C1 (stereo not given)	5	15
O=S(=O)(c1cccc(C(F)(F)F)c1)N1CCN(C(c2ccccc2)c2ccc(Br)cc2)CC1 (stereo not given)	5	1
CSCc1cc(C(=O)OC(C)C(=O)NC(=O)NC(C)(C)C)ccc1F (stereo not given)	3	2

# Brought forward from above: 3 entries, followed by the next part.
Structure	NPYLR7 ag	NPYLR7 ag max-min
CC(C)(C)C(=O)N1CC(=O)N(C2Cc3ccccc3C2)CC(O)C1 (stereo not given)	5	15
O=S(=O)(c1cccc(C(F)(F)F)c1)N1CCN(C(c2ccccc2)c2ccc(Br)cc2)CC1 (stereo not given)	5	1
CSCc1cc(C(=O)OC(C)C(=O)NC(=O)NC(C)(C)C)ccc1F (stereo not given)	3	2
N#CC(=Cc1cccn1-c1ccc([N+](=O)[O-])cc1)c1nc2ccccc2[nH]1	-5	-8
COc1cc(OC)cc(C(=O)N2CCC3(CC2)SCCN3C(=O)c2ccc(C(F)(F)F)cc2)c1	17	21
CCc1c(C)nn(-c2ccc(C(=O)NCCCN(C)c3ccccc3)cc2)c1C	-8	-12
CC(CN1CCN(c2ccccc2)CC1)NC(=O)N1CCOCC1 (stereo not given)	-13	-19
CS(=O)(=O)c1ccc(C(=O)Nc2c(Cl)cc(NC(=O)CC3C=CCC3)cc2Cl)cc1 (stereo not given)	4	10
COc1ccccc1CNC(=O)CN1CC2(CCNCC2)CC1C(=O)O (stereo not given)	18	18
O=S(=O)(c1ccc(Br)s1)N1CCCC1c1nc2ccccc2s1 (stereo not given)	2	14
COc1ccc(-c2nc(C(=O)N3CCN(C)CC3)sc2-c2ccc(OC)cc2)cc1	0	-9
CCN(C(C)=O)c1nc(/C=C/c2nc3cc(Cl)ccc3o2)cs1	3	0
O=C(Cc1ccccc1O)NCc1cccnc1Oc1ccccc1F	8	9
O=C(NC(c1ccccc1)c1ccccc1)[C@@H]1CCCN1C(=O)c1ccc(-n2cccn2)nc1	-3	5
Cc1ccc(Cc2nc(N3CCN(C(=O)Nc4cccc(Br)c4)CC3)c3c(-c4cccnc4)noc3n2)cc1	3	-3
COc1ccc(C)c2sc(=NC(=O)c3cc(C)no3)n(C)c12	8	11
O=C1c2cccc(O)c2C(=O)c2c(O)cccc21	-7&-6	-16&-11
CCCCCNC(=O)c1cc(N2CCSCC2)nc2ccccc12	-16	-19
CC1(C(=O)Nc2ccc(N3CCC(O)CC3)c(C#N)c2)CCCc2ccccc21 (stereo not given)	2	0
Nc1ccc(-c2cc(C(=O)O)[nH]n2)cc1	-5	-13
Cc1ccccc1Cn1c(C(=O)N2CCN(C(=O)c3ccccc3F)C(C)C2)cc2ccoc21 (stereo not given)	15	23
COc1ccc(OC)c(-c2cnc(-c3ccc(CNC(=O)c4ccc(OC)c(OC)c4)cc3)[nH]2)c1	18	3
O=C1NC(Cc2c[nH]c3ccccc23)C(=O)N1Cc1nc2ccccc2s1 (stereo not given)	6	3
COc1ccccc1C/C(C)=C/C(=O)N(Cc1cccnc1)C(C)C	2	0
Cn1c(=O)n(CC(O)c2ccccc2C(F)(F)F)c2ccccc21 (stereo not given)	0	-4
CCc1nn2c(NCCCn3ccnc3)cc(C)nc2c1-c1ccccc1	1	3
Cc1cc(C)cc(C(=O)NCC(C)(O)c2cc(C)oc2C)c1 (stereo not given)	9	3
CC(C)N(C(=O)COC(=O)c1ccc(Cl)c(S(N)(=O)=O)c1)C(C)C	3	1
Cc1c(C(=O)Nc2nccs2)nnn1-c1ccccc1	2	-7
CCN(C(=O)c1ccon1)c1ccc(NC(=O)c2ccon2)cc1	5	4
CCNS(=O)(=O)c1ccc2c(c1)C(=NO)c1cc(S(=O)(=O)NCC)ccc1-2	0	-2
CCOc1cccc(CN2CCCn3cccc3C2c2ccc(Cl)cc2)c1 (stereo not given)	8	16
CC1CN(Cc2ccccc2)c2nc3c(c(=O)n(Cc4ccc(Br)cc4)c(=O)n3C)n2C1 (stereo not given)	1	2
Cc1ccc2nc(C)c(NC(=O)CCSc3ccccc3)c(=O)n2c1	3	1
O=C(CCN1C(=O)/C(=C/c2ccc(Cl)cc2)SC1=S)Nc1nccs1	-1	-7
c1ccc(CCc2nc(CN3CCC4(C3)OCCO4)cs2)cc1	0	-1
Cc1cc(C(=O)N(CCCN(C)C)c2nc3c(Cl)cccc3s2)n(C)n1	1	0
CC(O)CN1CCC(CNCc2c(Cl)nc3sccn23)CC1 (stereo not given)	10	4
CCOC(=O)c1c(C)c(C(=O)NCCC(C)C)c(C)n1C	6	14
Cc1cc(C)cc(Oc2cc(C)nc(SCc3ccccc3Cl)n2)c1	5	21
CCCCCCCCCC1c2c(n[nH]c2C)OC(=N)C1C#N (stereo not given)	13	9
O=C(c1ccc(Br)cc1)N1CCN(c2nc(CCc3ccccc3)nc3sc4c(c23)CCCC4)CC1	14	20
O=C(CNC(=O)c1ccc(F)cc1F)NCCN1C(=O)SC(=Cc2ccccc2Cl)C1=O	-1	-1

# Further structures follow.
# Results follow in this order: NPYLR7 ag | NPYLR7 ag max-min
CCOC(=O)C1(CC2CC2)CCN(S(=O)(=O)c2ccc(CC)s2)CC1
    5 | 4
O=c1ccccn1OCc1ccccc1
    7 | 10
O=C(Nc1ccc(Nc2cc(-n3ccnc3)ncn2)cc1)c1ccccc1Cl
    -18 | -21
Clc1ccc(-c2noc(CN(Cc3ccccn3)CC3CCCO3)n2)cc1 (stereo not given)
    1 | -1
CCOc1ccc(C(C)C)cc1S(=O)(=O)NCCOc1ccc(-c2ccc(F)cc2)nn1
    -5 | -5
Cc1cc(Cn2nc(C)c(C)c(C#N)c2=O)no1
    -1 | 4
COc1ccc(-c2cn3c(C)c(C(=O)NCC(C)C)sc3n2)cc1
    6 | 0
CCc1ccc2[nH]c(O)c(N=Nc3nc(-c4ccccc4)cs3)c2c1
    -2 | -5
COc1ccc(C)cc1NC(=O)CN(C)C1CCCCC1
    5 | 2
CCN=C1SC(CC(=O)Nc2ccccc2Cl)C(=O)N1CC (stereo not given)
    -9 | -13
O=C(CCN1CCC(O)(Cn2ccnc2)CC1)Nc1nc2ccccc2s1
    12 | 7
O=C(COC(=O)c1ccc([N+](=O)[O-])o1)NC1CCS(=O)(=O)C1 (stereo not given)
    5 | 5
COC(=O)CCCCC(=O)N1CCN(c2nc3nccc(C(C)(C)C)n3n2)CC1
    4 | 2
OCc1ccc2n1CCN=C2CC1CC1
    10 | 6
COc1ccc(S(=O)(=O)Oc2ccccc2CN(CC2CCCO2)C(=O)c2ccccc2Cl)cc1 (stereo not given)
    9 | 16
O=C(O)c1cc(CN2CC[C@@H](c3ccc4ccccc4c3)[C@H](O)C2)ccc1O
    6 | 4
O=C(CSCC(=O)Nc1ccc(Cl)cc1)NCc1ccco1
    -2 | -2
N#Cc1cccc(CN2Cc3ccccc3CC2C(N)=O)c1 (stereo not given)
    0 | -1
CCn1nc(CO)c2c1CCN(c1cc(C3CCCNC3)nc(C)n1)C2 (stereo not given)
    24 | 24
CN(C(=O)Cc1cccnc1)C(c1ccc(Cl)cc1)C(F)(F)F (stereo not given)
    3 | 0

# Given field by field: entries from further up
COc1ccc(S(=O)(=O)Oc2ccccc2CN(CC2CCCO2)C(=O)c2ccccc2Cl)cc1 (stereo not given)
- NPYLR7 ag = 9
- NPYLR7 ag max-min = 16
O=C(O)c1cc(CN2CC[C@@H](c3ccc4ccccc4c3)[C@H](O)C2)ccc1O
- NPYLR7 ag = 6
- NPYLR7 ag max-min = 4
O=C(CSCC(=O)Nc1ccc(Cl)cc1)NCc1ccco1
- NPYLR7 ag = -2
- NPYLR7 ag max-min = -2
N#Cc1cccc(CN2Cc3ccccc3CC2C(N)=O)c1 (stereo not given)
- NPYLR7 ag = 0
- NPYLR7 ag max-min = -1

# Next section:
# Results follow in this order: NPYLR7 ag | NPYLR7 ag max-min
COc1ccc(-c2coc3cc(OC(C)=O)cc(OC(C)=O)c3c2=O)cc1
    -7 | -9
O=C(O)c1cccnc1CN(Cc1ccccc1)C1CCS(=O)(=O)C1 (stereo not given)
    -4 | -8
CC(OC(=O)c1cccs1)C(=O)Nc1ccc(N2CCOCC2)cc1 (stereo not given)
    -4 | -7
C#CCn1cnc2c(cnn2-c2ccccc2C)c1=O
    13 | 7
O=C(CSC1CCS(=O)(=O)C1)Nc1nc2c(ccc3ccccc32)s1 (stereo not given)
    6 | 1
COc1ccc(Cl)cc1-n1nnc(C(=O)NCC2CCCO2)c1C (stereo not given)
    2 | 1
COc1ccccc1-c1cc(C(=O)N2CCN(c3ccc([N+](=O)[O-])cc3)CC2)n2nc(-c3ccc(Cl)cc3)cc2n1
    -4 | 1
Cc1ccc2[nH]cc(CN3CCCN(C(=O)c4ccco4)CC3)c2c1
    -1 | -3
C=CCN1CC(c2nc3ccccc3n2CCOc2cccc(C)c2C)CC1=O (stereo not given)
    -3 | 1
Cc1ccc(C)c(OCCC(=O)Nc2ccc(C)c(F)c2)c1
    -3 | -4

# Structures listed so far that contain a CF3 group (5):
# Results follow in this order: NPYLR7 ag | NPYLR7 ag max-min
Cc1cc(C)c(NC(=O)C(C)N2CCCC(C(F)(F)F)C2)c(C)c1 (stereo not given)
    8 | 8
O=S(=O)(c1cccc(C(F)(F)F)c1)N1CCN(C(c2ccccc2)c2ccc(Br)cc2)CC1 (stereo not given)
    5 | 1
COc1cc(OC)cc(C(=O)N2CCC3(CC2)SCCN3C(=O)c2ccc(C(F)(F)F)cc2)c1
    17 | 21
Cn1c(=O)n(CC(O)c2ccccc2C(F)(F)F)c2ccccc21 (stereo not given)
    0 | -4
CN(C(=O)Cc1cccnc1)C(c1ccc(Cl)cc1)C(F)(F)F (stereo not given)
    3 | 0

# Continuation:
# Results follow in this order: NPYLR7 ag | NPYLR7 ag max-min
N#Cc1nc2ccccc2n1CC(=O)NCc1ccc2c(c1)NC(=O)CO2
    0 | -2
Cn1nc(C(=O)NNC(=O)c2ccc(COc3ccc(Cl)cc3)cc2)ccc1=O
    4 | 1
c1ccc2[nH]c(CSc3ccc4c(c3)OCCO4)nc2c1
    9 | 6
Cc1cccc(CN2CCN(C(=O)CN3C(=O)CNC3=O)C(C)C2=O)c1 (stereo not given)
    25 | 15
COc1ccc(-c2cnnc(NCCc3ccccc3F)n2)c(OC)c1
    6 | 1
COc1ccc2sc(SCc3csc(-c4ccc(OC)c(OC)c4)n3)nc2c1
    0 | 14
COc1cc(-c2cc(-c3cccc(O)c3)cnc2N)cc(OC)c1OC
    1 | -10
COc1ccc(F)cc1-c1csc(-c2ccc(NC(=O)C3CC3)cc2)n1
    8 | 9
COCC(=O)Nc1c(-c2ccc(C)cc2)nc2ccccn12
    -6 | -6
CCOc1ccc(S(=O)(=O)N2CCN(c3ccccc3OCC)CC2)cc1
    2 | 7
Cc1ccc(C2CC2NCc2c(C)nn(CCO)c2C)cc1C (stereo not given)
    4 | 0
C#Cc1cccc(NS(=O)(=O)c2cccc(C)c2)c1
    -5 | -8
COc1cccc(C(=O)N2CCN(c3ccc(-n4nc(C)cc4C)nn3)CC2)c1OC
    -5 | -7

# A second format for part of the listing above:
> COc1ccc2sc(SCc3csc(-c4ccc(OC)c(OC)c4)n3)nc2c1
  NPYLR7 ag: 0; NPYLR7 ag max-min: 14
> Cc1ccc(C2CC2NCc2c(C)nn(CCO)c2C)cc1C (stereo not given)
  NPYLR7 ag: 4; NPYLR7 ag max-min: 0

# The list is partial; count on the stated rates, not on these rows.
